High-throughput results deposited in PubChem BioAssay by several laboratories.
ugtP null kill = growth inhibition of S. aureus ugtP deletion strain; S. aureus RN4220 ugtP deletion, OD600 growth, 16 h; some inactives read as strong as hits; growth inhibition, % (test concentration not listed); actives 0.54% (n = 330,000);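 active = z-score under -3 and OD600 up to 0.15 on both plates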;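 also: plate controls were untreated wells for no effect and antibiotic for full effect; wells of about 80 µL received 100 nL stock; the first replicate is given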
Sa RN4220 lethal = kills Staphylococcus aureus RN4220; S. aureus RN4220 growth, OD600, 16 h; inhibition, % (no concentration beside the values); actives 0.33% (n = 330,000); AID 1259311;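 active = z-score of -3 or lower and OD600 up to 0.18 on both plates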;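 also: plate controls were untreated cells for no effect and reference antibiotic for full effect; stock transfer was 100 nL into about 80 µL; one replicate is shown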
Bead autofluor = counter-screen for toxin protease inhibitors: compound fluorescence | compound autofluorescence counterscreen, microsphere flow cytometry; stronger effect = higher value | fluorescence intensity (concentration not given with the values) | actives 3.1% (n = 360,000);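 active = at least 3 SD above the mean of all compounds, about 16000 in these data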;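 also: 100 nL of 1 mM stock went into each well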
Mtb hypoxia rep = inhibitors of hypoxia-regulated fluorescent reporter in Mycobacterium tuberculosis | AID 1159583 | fluorescence inhibition, % (test concentration not listed) | actives 0.1% (n = 300,000) | M. tuberculosis hypoxia-regulated fluorescent reporter, fluorescence;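 active = 35 to 45% if threefold the growth effect, above 45% if 1.5-fold the growth effect; inactive = the rest, general growth blockers included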;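 also: wells of about 50 µL received 100 nL stock; 0% = vehicle wells and 100% = reference inhibitor wells; whole bacteria with a GFP reporter of the hypoxia response; strong numbers were not always called active; many hits fall short of the cut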
BJeLR viability = BJeLR cell viability loss; BJeLR (HRASV12) viability, CellTiter-Glo ATP luminescence, 48 h; reference of the scale not given here; inhibition, % (concentration not given with the values); actives 0.17% (n = 300,000); AID 1554;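 active = replicate mean above 50%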;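 also: 50 nL library stock added to about 25 µL; numbers are from one replicate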
PrP UTR inh = inhibition of PrP 5' UTR reporter expression; cell-based PrP 5' UTR mRNA reporter, plate reader; inhibition, % (no concentration beside the values); actives 0.35% (n = 340,000); AID 488862;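 active = every replicate at 50% or more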;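 also: 0 = median of the neutral control wells; tested in H4 reporter cells; numbers are from one replicate; inactives centre near -14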
Mtb hypoxia rep growth = recorded beside Mtb hypoxia rep, whose call it bears; growth inhibition, %; measured here: M. tuberculosis growth (absorbance);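 0% = vehicle and 100% = reference antibiotic; read after six days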
* hit, by the source's call; . = no result given. This is a random part of the collection. Share with any hit: about 4%.

Results follow in this order: ugtP null kill | Sa RN4220 lethal | Bead autofluor | Mtb hypoxia rep | Mtb hypoxia rep growth | BJeLR viability | PrP UTR inh
- COc1ccc(CC(=O)OCC(=O)Nc2ccc(Br)cc2)cc1
→ 7 | 6.7 | 2080 | 10 | 17 | -1 | -20
- O=C(c1ccc2c(c1)OCO2)C1CCCN(Cc2cn[nH]c2-c2ccccc2)C1 (centres undefined)
→ -4 | 7.6 | 2475 | -1 | 6 | 6 | -14
- O=C(Nc1ncn[nH]1)c1cccc(F)c1
→ -7 | 1.4 | 3482 | 9 | 12 | . | -6
- CC1(C)Cc2c(C#N)c(OCC(=O)c3ccccc3)nc(-c3ccoc3)c2CO1
→ -5 | 4.7 | 7104 | 4 | 4 | -17 | -17
- O=C(CNc1cccc2ccccc12)NN=Cc1ccc[nH]1
→ 0 | -0.2 | . | 13 | 7 | . | .
- CC(=O)Nc1ccc(/C=N/NC(=O)CNC(=O)c2ccccc2)cc1
→ . | . | 4303 | . | . | 9 | -22
- O=C(CSc1nc2[nH]ncc2c(=O)[nH]1)NCc1ccccc1Cl
→ . | . | 7617 | . | . | -15 | -18
- CC1(C)CC(=O)C(C=Nc2ccc(Cl)cn2)=C(O)C1
→ . | . | 4505 | . | . | -12 | -3
- COc1ccc(-c2[nH]ncc2CN(CCO)Cc2cccs2)c(F)c1
→ . | . | 3844 | . | . | -6 | 22
- COCCn1cnc2c1c(=O)n(CC(=O)OCC(=O)NCCCc1ccccc1)c(=O)n2Cc1ccccc1
→ 6 | 1.6 | 2740 | 15 | -6 | -4 | -12
- CCCn1c(N)c(N(CCOC)C(=O)/C=C/c2ccc(C(=O)OC)cc2)c(=O)[nH]c1=O
→ 1 | -0.1 | 4426 | 5 | 4 | -3 | -9
- Cc1ccccc1C(=O)Nc1ccccc1C(=O)NC1CC1
→ 3 | 1.5 | 5807 | 4 | 7 | -10 | -11
- Cc1oc2ccc(O)cc2c1C(=O)c1ccc(F)cc1
→ 7 | 2.9 | . | 11 | -5 | 0 | .
- COC(=O)CNC(c1ccccc1Cl)c1cc(Br)ccc1NC(=O)CCN1CCOCC1 (centres undefined)
→ -2 | 1.4 | 2676 | . | . | 6 | -7
- Cc1cc(N2CC(C(=O)Nc3nccs3)CC2=O)ccc1C(C)C (centres undefined)
→ 1 | 2.8 | 5198 | 8 | 17 | 6 | -18
- O=C1C2C(C(=O)N1/N=C/c1cc([N+](=O)[O-])ccc1O)C1C=CC2C12CC2 (centres undefined)
→ . | . | 13310 | . | . | 0 | -21
- Cc1ccc(CNc2nc(N)c([N+](=O)[O-])c(NCCO)n2)cc1
→ 3 | 4.0 | 4178 | 0 | 3 | 7 | -30
- Cc1cc(C)c2cc(CN(CC3CCCO3)C(=S)NCc3ccco3)c(=O)[nH]c2c1 (centres undefined)
→ -2 | 2.8 | 3601 | 5 | 14 | 0 | -7
- CC(C)C(O)(C(=O)NNc1ccccc1)C(C)C
→ 2 | 5.6 | 4407 | 12 | 12 | -5 | -58
- COc1cc2c(cc1OC)C(=O)N1C3c4cc(C)ccc4OCC3C(c3ccccc3)[C@]1(C)C(=O)N2 (some centres undefined)
→ 8 | -2.0 | . | 0 | 8 | . | .
- CCCCNC(=O)COCc1cc(-c2ccc3c(c2)OCO3)on1
→ 3 | 3.3 | 3622 | 5 | 3 | 4 | -21
- Cc1ccccc1-c1cc(C(=O)NCc2ccc3c(c2)OCO3)nn1CC1CC(c2cccc([N+](=O)[O-])c2)=NO1 (centres undefined)
→ 6 | 1.8 | 4400 | 17 | 5 | . | -21
- O=c1[nH]n(-c2cccc3cccnc23)c(=O)c2ccccc12
→ 3 | 3.7 | 9784 | 4 | 0 | 1 | -12
- CCN(CCn1cccn1)Cc1nc(Cc2cccc(F)c2)no1
→ -1 | 7.4 | 4307 | 10 | 3 | -4 | -24
- Cc1ccc(CO/N=C\Cc2snc(Sc3ncc(C(F)(F)F)cc3Cl)c2C#N)cc1
→ . | . | 2896 | . | . | -3 | -4
- COc1ccccc1NCc1nnc(SCC(=O)NN=Cc2ccco2)n1-c1ccc(Cl)cc1Cl
→ -4 | 4.4 | . | -1 | 6 | . | .
- COC(=O)c1ccc(C(=O)N2CCCC(N3CCN(c4ccc(F)cc4)CC3)C2)nc1 (centres undefined)
→ 13 | 2.9 | 5842 | 2 | -1 | -5 | -7
- Cc1nc(-c2cnn(-c3ccccc3)c2)c2cc(C)oc2n1
→ 14 | 8.8 | 2225 | . | . | -10 | -19
- Clc1ccc(OCc2nc(-c3ccncc3)no2)c(Cl)c1
→ -11 | 3.7 | 3641 | 2 | 6 | -4 | -79
- COC(=O)c1sccc1S(=O)(=O)N1CCCC(N(C)CCc2ccccn2)C1 (centres undefined)
→ . | . | 5199 | . | . | 7 | -13

Reformatted field by field: entries from further up
> COc1ccc(CC(=O)OCC(=O)Nc2ccc(Br)cc2)cc1
  ugtP null kill: 7
  Sa RN4220 lethal: 6.7
  Bead autofluor: 2080
  Mtb hypoxia rep: 10
  Mtb hypoxia rep growth: 17
  BJeLR viability: -1
  PrP UTR inh: -20

> O=C(c1ccc2c(c1)OCO2)C1CCCN(Cc2cn[nH]c2-c2ccccc2)C1 (centres undefined)
  ugtP null kill: -4
  Sa RN4220 lethal: 7.6
  Bead autofluor: 2475
  Mtb hypoxia rep: -1
  Mtb hypoxia rep growth: 6
  BJeLR viability: 6
  PrP UTR inh: -14

More entries follow.
Molecule	ugtP null kill	Sa RN4220 lethal	Bead autofluor	Mtb hypoxia rep	Mtb hypoxia rep growth	BJeLR viability	PrP UTR inh
O=P(O)(O)c1ccccc1OCCOCCOc1ccccc1P(=O)(O)O	3	5.2	12190	12	-1	.	-13
COc1ccccc1NC(=O)c1ccc2snnc2c1	6	6.5	2203	11	-11	-1	-15
COc1ccc(NC(=O)CN2C(=O)CSC2=O)cc1	2	2.1	8956	0	6	-7	-10
CCCOc1ccc(C2CC(=O)Nc3cc(OC)c(OC)cc32)cc1 (centres undefined)	15	-0.1	3652	11	10	-1	5
O=C(COC(=O)Cc1c(Cl)cccc1Cl)NC1CCCC1	2	5.5	5534	6	7	.	-10
CCN(CC)C(=O)CSc1nnc(-c2ccc(S(=O)(=O)NCc3ccccc3Cl)cc2)o1	-13	5.9	16564*	0	4	4	-1
Cc1cccc(-c2noc(CCC(=O)Nc3ccccc3)n2)c1	0	-3.1	5827	9	6	-3	-11
CC1=NOC(=O)/C1=C/c1ccc(N(C)C)cc1	-3	1.8	.	4	15	19	.
CC(C)CC(CO)N1CCN(C(=O)c2ccc(Cl)cc2Cl)CCC1=O (centres undefined)	7	5.2	4175	2	6	-6	-17

Of the compounds above, three contain a nitro group on carbon:
Molecule	ugtP null kill	Sa RN4220 lethal	Bead autofluor	Mtb hypoxia rep	Mtb hypoxia rep growth	BJeLR viability	PrP UTR inh
O=C1C2C(C(=O)N1/N=C/c1cc([N+](=O)[O-])ccc1O)C1C=CC2C12CC2 (centres undefined)	.	.	13310	.	.	0	-21
Cc1ccc(CNc2nc(N)c([N+](=O)[O-])c(NCCO)n2)cc1	3	4.0	4178	0	3	7	-30
Cc1ccccc1-c1cc(C(=O)NCc2ccc3c(c2)OCO3)nn1CC1CC(c2cccc([N+](=O)[O-])c2)=NO1 (centres undefined)	6	1.8	4400	17	5	.	-21

Entries from the list above that contain two or more sulfur atoms:
Molecule	ugtP null kill	Sa RN4220 lethal	Bead autofluor	Mtb hypoxia rep	Mtb hypoxia rep growth	BJeLR viability	PrP UTR inh
Cc1ccc(CO/N=C\Cc2snc(Sc3ncc(C(F)(F)F)cc3Cl)c2C#N)cc1	.	.	2896	.	.	-3	-4
COC(=O)c1sccc1S(=O)(=O)N1CCCC(N(C)CCc2ccccn2)C1 (centres undefined)	.	.	5199	.	.	7	-13
CCN(CC)C(=O)CSc1nnc(-c2ccc(S(=O)(=O)NCc3ccccc3Cl)cc2)o1	-13	5.9	16564*	0	4	4	-1
